Bioassay records from PubChem BioAssay.
LANA-H2A inh: blocks KSHV LANA binding to histone H2A/H2B | Q9QR71 | cell-free LANA-H2A/H2B peptide, fluorescence polarization | inhibition, % (no concentration beside the values) | hit rate 0.6% among 320,000; in the data active = inhibition mostly above about 10%, no sharp cut-off; inactive = mostly below about 6.7%;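 note: stock transfer was 7.5 nL into about 10 µL; 0% = median of vehicle wells and 100% = median of positive control wells; one replicate is shown; the record names a cut of 25% in any replicate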
ALR inh: inhibitors of human sulfhydryl oxidase ALR | P55789 | purified ALR, DTT oxidation, H2O2 HRP-luminol luminescence | inhibition, % (test concentration not listed) | hit rate 3.8% among 290,000;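 active = mean and each replicate at 75% or more; inconclusive = only one of the two met; inactive = neither met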;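 note: stock transfer was 7.5 nL into about 7.5 µL; 0% = neutral wells and 100% = wells with inactivated enzyme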
Target sequence (P55789 whole entry, looked up): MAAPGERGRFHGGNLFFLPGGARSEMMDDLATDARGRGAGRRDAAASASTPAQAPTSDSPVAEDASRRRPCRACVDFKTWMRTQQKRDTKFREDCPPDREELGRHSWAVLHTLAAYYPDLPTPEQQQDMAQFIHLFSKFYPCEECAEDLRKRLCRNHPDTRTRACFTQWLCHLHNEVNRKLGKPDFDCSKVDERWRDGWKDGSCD
Vif TR-FRET: inhibitors of Vif binding to APOBEC3G peptide, primary screen, biochemical, TR-FRET, GST-Vif 1-94, biotin-A3G peptide, dose response retest (AID 1117319); inhibition, %, or IC50 in µM where a hit was titrated; TR-FRET GST-Vif / biotin-A3G peptide binding; higher % means a stronger effect; test concentration not given here; strong numbers were not always called active; hit rate 0.57% among 260,000;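 active = above the screen mean plus three standard deviations and confirmed in dose response; inconclusive = results disagree or hit not tested in dose response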;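 note: Vif residues 1-94 fused to GST binding biotinylated APOBEC3G peptide 110-148; 0% = full assay without inhibitor and 100% = GST in place of GST-Vif; retest series ran down from 100 µM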
HNF4A DNA FP: change in binding of human HNF4 alpha to DNA | HNF4a-FITC DNA binding, fluorescence polarization, 1 h | activity change, % at 10 µM | hit rate 0.3% among 360,000 | AID 1224865; in the data active = activity change above about 30%, passing the limit was not always enough;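 note: controls were the assay level and a saturating level of protein; the project sought stronger binding though the title names inhibitors; some compounds called inactive have numbers as strong as hits; positive values seem to mean higher polarization but the record does not say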
Target sequence (P41235 whole entry, looked up): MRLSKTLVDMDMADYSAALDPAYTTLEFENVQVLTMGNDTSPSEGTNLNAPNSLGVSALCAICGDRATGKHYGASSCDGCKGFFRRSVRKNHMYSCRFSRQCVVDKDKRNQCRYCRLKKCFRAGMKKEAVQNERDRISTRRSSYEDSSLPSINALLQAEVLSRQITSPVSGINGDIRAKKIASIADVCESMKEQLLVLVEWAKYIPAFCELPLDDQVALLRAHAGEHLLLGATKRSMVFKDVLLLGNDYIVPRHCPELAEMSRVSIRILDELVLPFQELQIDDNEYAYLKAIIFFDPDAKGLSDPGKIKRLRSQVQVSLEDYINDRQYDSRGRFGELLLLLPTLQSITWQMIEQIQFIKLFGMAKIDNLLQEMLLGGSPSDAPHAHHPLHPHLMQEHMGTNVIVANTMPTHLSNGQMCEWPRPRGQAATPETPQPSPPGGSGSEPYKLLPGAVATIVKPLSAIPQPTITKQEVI
B2AR ag: agonists of human beta-2 adrenergic receptor inducing internalization; hit rate 0.43% among 340,000; response, % (concentration not given with the values); P07550; AID 504454; Am2.2-beta2AR cells, FAP receptor internalization, flow cytometry; reference of the scale not given here;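 active = response above a set limit, near 3 SD of response in nonfluorescent compounds, cut at about 42% in these data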;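 note: stock transfer was 100 nL into about 11 µL; a reference agonist was the positive control; negative values mostly stem from fluorescent compounds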
Target sequence (P07550 whole entry, looked up): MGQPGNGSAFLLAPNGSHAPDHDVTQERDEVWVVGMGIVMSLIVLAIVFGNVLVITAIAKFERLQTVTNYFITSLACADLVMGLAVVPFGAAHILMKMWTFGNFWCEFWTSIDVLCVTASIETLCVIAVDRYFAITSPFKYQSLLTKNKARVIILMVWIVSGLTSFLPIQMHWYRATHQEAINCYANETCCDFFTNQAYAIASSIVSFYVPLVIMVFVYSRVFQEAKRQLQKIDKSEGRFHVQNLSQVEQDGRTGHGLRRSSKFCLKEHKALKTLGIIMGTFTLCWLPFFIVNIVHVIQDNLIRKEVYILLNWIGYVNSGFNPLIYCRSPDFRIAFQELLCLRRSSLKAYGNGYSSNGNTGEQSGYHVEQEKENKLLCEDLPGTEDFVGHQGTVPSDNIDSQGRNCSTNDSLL
RanGTP-Impb inh: disruptors of Ran-importin-beta complex formation – biochemical, FRET, CFP-Ran, YFP-importin-beta, homogeneous, primary screen; cell-free CFP-Ran/YFP-importin-beta FRET ratio; inhibition, % (concentration not given with the values); hit rate 1.1% among 300,000; AID 2216;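 active = most replicates above 15%; inconclusive = exactly half above 15%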;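 note: 0% = DMSO wells and 100% = Ran loaded with GDP instead of GTP; wells of about 40 µL received 100 nL stock; the first replicate is given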
Calb FLC: C. albicans growth modulation with fluconazole. hit rate 0.57% among 300,000. AID 1979. C. albicans CaCi-2 (fluconazole-resistant clinical isolate) + fluconazole, Alamar Blue growth, 48 h. growth inhibition, % (no concentration beside the values);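 active = most replicates above 75%; inconclusive = exactly half above 75%; inactive = most below 75%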;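 note: all wells also contain fluconazole at 8 µg/ml as a sub-toxic cotreatment; 0% = median of DMSO wells and 100% = median of geldanamycin control wells; wells of about 8 µL received 7.5 nL stock; the first replicate is given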
Active calls of the source: *; ? = inconclusive; / = no result given. This is a random part of the collection; any-hit rate near 6.3%.

Under each structure: LANA-H2A inh	ALR inh	Vif TR-FRET	HNF4A DNA FP	B2AR ag	RanGTP-Impb inh	Calb FLC
1	CCc1ccc(NC(=O)C(=O)NCCN2CCN(S(=O)(=O)c3ccccc3)CC2)cc1
→ -3.8	-10.3	4.1%	1.7	-2.0	0.3	-1.6
2	CC(=O)C1=C(C)N(CC2CC2)C(=O)N[C@H]1c1cccs1
→ 0.2	-6.6	6.9%	-1.6	7.8	/	/
3	O=C(Nc1ccccc1)c1ccncc1
→ -1.4	/	-2.7%	-0.4	-3.2	0.0	7.1
4	COc1ccc(CN=C(NS(=O)(=O)c2cccs2)SC)cc1
→ -5.5	/	/	1.2	-57.7	-1.0	2.3
5	CCCCn1c(SCC(=O)Nc2cc(C)on2)nnc1-c1cccs1
→ -2.2	9.5	/	2.2	1.0	-3.6	-1.1
6	COc1ccccc1C(=O)OCc1c(-c2ccccc2)ncc2ccccc12
→ 2.0	/	10.0%	-0.7	13.1	/	/
7	COc1ccc(NC(=O)Nc2cc(NC(=O)Nc3ccc(OC)cc3)c(C)nc2C)cc1
→ 0.8	15.1	11.2%	-3.6	6.8	3.1	32.5
8	Cc1cc(C(=O)Cn2nnc3ccccc3c2=O)c(C)n1-c1ccccc1F
→ -1.7	-19.1	5.2%	1.4	10.5	-1.3	23.1
9	N#CC(C(=O)OC1CCCCC1)c1nc2ccccc2nc1N1CCOCC1 (centres undefined)
→ 8.0	/	2.7%	-0.6	-10.6	?	-9.7
10	Cc1cc(C)nc(NC(N)=NCCc2c[nH]c3ccccc23)n1
→ 8.9	8.8	-15.8%	-1.5	8.1	2.8	11.2
11	Cc1ccc(S(=O)(=O)NC(=O)c2ccccc2)cc1C(C)C
→ -0.9	-6.0	-12.9%	0.8	-0.8	2.1	?
12	CC1(C)C2(C#N)C(=O)NC(=O)C12C#N (centres undefined)
→ /	/	0.9%	5.2	-6.3	/	/
13	Cc1cc(C(=O)Nc2ccccc2C)n(-c2ccccc2)n1
→ 2.0	/	7.7%	2.2	-3.9	2.8	-6.4
14	O=C(Nc1ccccc1N1CCN(C(=O)c2ccccc2)CC1)c1ccco1
→ 0.8	-1.3	/	1.2	-2.4	2.0	1.9
15	CC(=O)Nc1ccc(-c2nc(C)c(C(C)=O)n2O)cc1
→ -4.0	5.5	28.9%	-3.3	0.3	0.6	-3.5
16	CCCOC(=O)C1=C(C)NC2=C(C(=O)C(C(=O)OC)C(C)C2)C1c1ccc(N(CC)CC)cc1 (centres undefined)
→ -2.3	26.2	21.5%	-0.3	-13.6	2.3	43.3
17	COc1cccc(NC(=O)CN(C)C(=O)CC2CCCCC2)c1
→ /	/	-0.2%	-2.4	4.6	/	/
18	O=c1[nH]c(Nc2ccccc2Cl)cc2ccccc12
→ 0.0	5.0	/	-15.6	4.2	38.5*	-0.5
19	Cc1cc(C)c(/C=N/NC(N)=O)c(C)c1/C=N/NC(N)=O
→ 2.8	-16.1	6.1%	4.7	4.8	-1.1	-1.0
20	Cc1sc2ncnc(N(C)Cc3cccs3)c2c1C
→ -2.1	8.1	-1.6%	-3.1	4.7	-4.0	-8.2
21	NC(N)=N/N=C/c1ccccc1OC(F)F
→ -0.7	2.7	/	1.4	-5.6	-0.7	-1.5
22	O=C(O)c1cccc(Nc2nc(-c3cc4ccccc4oc3=O)cs2)c1
→ -0.8	0.5	/	0.4	-11.5	2.6	5.8
23	COCCn1c(SCC(=O)N2CCCc3ccccc32)nnc1-c1ccoc1C
→ 4.0	4.4	5.7%	2.8	1.6	1.4	-0.4
24	Cc1ccc(N2C(=O)/C(=C\c3ccco3)SC2=S)cc1
→ 3.7	5.7	7.72µM*	7.3	15.6	-1.0	5.6
25	CC(=O)c1c(N)n(C)c(=O)n(C)c1=O
→ 0.6	0.5	-2.1%	0.2	-2.9	1.1	-7.4
26	Cc1nn(CCc2n[nH]c(=S)n2C2CCCCC2)c(C)c1Br
→ 1.9	1.8	-5.0%	-2.1	0.6	-1.6	9.1
27	CCOC(=O)C1=C(c2ccccc2)N=c2s/c(=C\c3ccc(O)cc3)c(=O)n2C1c1cccs1 (centres undefined)
→ -5.9	-10.7	-10.4%	21.7	-30.9	-8.3	1.7
28	COc1ccc(C(C(=O)NC2CCCC2)N(Cc2ccccc2)C(=O)c2nsc(Cl)c2Cl)cc1 (centres undefined)
→ 2.7	-1.3	-5.2%	0.9	-0.5	-0.1	3.4
29	O=C(COC(=O)c1cc([N+](=O)[O-])ccc1N1CCOCC1)c1ccc(OC(F)F)cc1OC(F)F
→ 2.0	-17.0	-6.0%	-4.4	8.2	4.0	12.0
30	CCN(CC)S(=O)(=O)c1cccc(NN=c2c(=O)c3ccccc3c2=O)c1
→ -6.8	-0.7	72.2%	-2.5	5.7	-2.3	0.5
31	CC(=O)N1N=C(c2ccc(NS(C)(=O)=O)cc2)CC1c1ccc2nccnc2c1 (centres undefined)
→ 0.5	-100.1	12.1%	-8.1	1.5	-0.8	31.8
32	O=C(COc1cc2oc(=O)c3c(c2cc1Cl)CCC3)Nc1cccnc1
→ 3.4	-2.1	/	0.3	-7.0	-5.2	1.4
33	COc1ccc(CN2CCCC(C(=O)Nc3cccc(-n4cnnn4)c3)C2)c(C)c1C (centres undefined)
→ 0.1	-0.5	1.7%	2.3	-5.1	2.8	-3.1
34	O=C(C1=C[C@H](c2ccc3c(c2)OCO3)C[C@H](OCc2ccc(CO)cc2)O1)N1CCN(Cc2ccc3c(c2)OCO3)CC1
→ -2.7	1.6	-12.8%	0.2	-6.7	-3.6	20.3
35	O=C(CCN1CCOCC1)Nc1ccccc1
→ -1.4	-1.8	-4.7%	-1.6	3.6	-2.3	-1.5
36	O=C(Nc1cc(-c2ccccc2)nn1-c1ccccc1)c1ccccc1F
→ -1.1	/	/	-0.6	-5.8	/	/
37	O=C(COc1ccc([N+](=O)[O-])cc1)Nc1ccc(N2CCN(C(=O)c3ccco3)CC2)cc1
→ 28.4*	-6.8	0.1%	2.8	-2.7	3.1	35.9
38	O=C(O)CSCC(=O)N1CCN(S(=O)(=O)c2cc(Cl)cc(Cl)c2)CC1
→ -3.1	-5.0	4.7%	1.6	-1.6	1.9	-5.4
39	CCN(CC)C(=O)COc1cc(C)cc2oc(=O)cc(-c3ccccc3)c12
→ -3.1	-3.3	-8.5%	-2.2	-9.6	-0.7	-4.9
40	O=C(CSc1ncccn1)Nc1cccc2ccccc12
→ -1.8	-0.5	/	4.3	0.3	-0.8	-2.0

Of the compounds above, these contain a cyano group:
Under each structure: LANA-H2A inh	ALR inh	Vif TR-FRET	HNF4A DNA FP	B2AR ag	RanGTP-Impb inh	Calb FLC
9	N#CC(C(=O)OC1CCCCC1)c1nc2ccccc2nc1N1CCOCC1 (centres undefined)
→ 8.0	/	2.7%	-0.6	-10.6	?	-9.7
12	CC1(C)C2(C#N)C(=O)NC(=O)C12C#N (centres undefined)
→ /	/	0.9%	5.2	-6.3	/	/

Further entries follow.
Under each structure: LANA-H2A inh	ALR inh	Vif TR-FRET	HNF4A DNA FP	B2AR ag	RanGTP-Impb inh	Calb FLC
41	COc1ccc(N(CC(=O)N/N=C/c2cc(Br)c(C)o2)S(=O)(=O)c2ccc(NC(C)=O)cc2)cc1
→ 25.3*	3.3	12.3%	1.4	14.6	-1.4	-38.4
42	O=c1[nH]c(Cc2ccccn2)nc2scc(-c3ccc(Cl)cc3)c12
→ 4.4	-3.0	15.9%	2.0	6.3	1.7	-12.6
43	Cc1ccc(C)c(CN2C(=O)C(C)Oc3ccc(C)cc32)c1 (centres undefined)
→ -1.8	25.5	72.2%	3.3	0.8	3.0	5.5
44	Cc1nn(Cc2ccc(Cl)cc2Cl)c(C)c1NC(=O)c1ccc(COc2cc(Cl)ccc2Cl)o1
→ 1.2	-0.6	6.3%	-1.3	18.9	4.5	8.2
45	CC(C)OCCCNC(=O)CCc1nc(-c2ccccc2)no1
→ 4.4	-9.8	-6.4%	-4.6	6.3	-0.9	-17.7
46	CC(=O)N1c2ccc(S(=O)(=O)N3CCC(C(=O)NCc4ccc(C)cc4)CC3)cc2CC1C (centres undefined)
→ 1.4	3.5	/	2.6	-0.8	?	2.0
47	COc1ccc(Nc2nc(N)nc(CSC(=S)N3CCN(C)CC3)n2)cc1
→ -1.4	-9.7	5.3%	5.1	0.0	4.8	1.7
48	CCCCOc1cccc(C(=O)NC(=S)Nc2ccc(Cl)c(C(=O)O)c2)c1
→ 2.4	33.8	66.1%	-1.0	-19.2	1.2	-5.0
49	O=C(N/N=C/c1cn(-c2ccccc2)nc1-c1ccc(F)cc1)c1ccc(Br)o1
→ 0.2	1.4	?	-7.8	11.7	-5.3	3.9
50	CCOc1ccc(-c2nc(CSCC(=O)NCCCN3CCCC3=O)c(C)o2)cc1
→ -1.2	98.9*	/	-0.1	-8.1	-1.5	-6.9
51	Cc1nn(C)cc1/C=C/C(=O)c1ccccc1
→ 5.0	7.7	-3.3%	-3.2	-9.1	2.5	16.4
52	O=C(NCc1ccco1)c1nnc(Cc2ccc(Cl)cc2)o1
→ -1.8	5.1	-1.1%	-2.8	-1.6	6.4	1.5
53	C#Cc1cccc(NC(=O)c2ccc3c(c2)C(=O)N(Cc2cccnc2)C3=O)c1
→ 2.0	-4.3	/	2.5	23.6	-2.7	-3.8
54	Cc1nnc(NN2CCOCC2)[nH]c1=O
→ -1.4	?	/	-0.4	-0.4	5.1	18.3
55	O=C1CC(C(=O)Nc2ccccc2)N=C(N2CCOCC2)N1 (centres undefined)
→ 1.0	-3.1	1.2%	-2.6	1.3	-3.4	-3.6
56	COc1cc(OC)cc(-c2c(-c3cccs3)c3cc(-c4ccn[nH]4)ccc3n2C)c1
→ -4.0	3.1	/	2.0	8.0	/	/
57	COCc1cc(C)nc(SCC(=O)NC2CCCCC2C)c1C#N (centres undefined)
→ -0.7	-0.3	/	0.6	0.8	/	/
58	Cc1ccc(S(=O)(=O)N2CCN(C(=O)c3cc(=O)[nH]c4ccccc34)CC2)c(C)c1
→ 0.1	/	1.1%	-3.1	12.9	3.1	19.8
59	CC1CCCCN1C(=O)N[C@@H](Cc1ccccc1)C(=O)O (some centres undefined)
→ -5.7	-2.9	0.1%	-0.1	3.7	2.5	23.4
60	Cc1ccc2c(c1)N(C(=O)NC1CCCCC1)C(C)(C)CC2C (centres undefined)
→ 1.3	-2.3	-1.9%	6.0	9.5	0.0	-3.6
61	O=C(N1CCOCC1)N1CCN(S(=O)(=O)N2CCCCC2)CC1
→ 2.3	-11.6	5.5%	-1.0	2.1	-0.3	-11.4
62	Cc1cc(C(=O)NC2CCCc3c2cnn3-c2cc(F)cc(F)c2)nn1C (centres undefined)
→ -1.5	2.3	/	0.8	-5.4	-0.6	9.7
63	COC(=O)C1CCN(C(=O)CN(C)Cc2ccc(C(C)(C)C)cc2)CC1
→ -4.6	-5.7	/	3.7	0.2	-0.5	80.1*
64	Cc1c(/C=N/NC(=O)c2cc(=O)[nH]c(=O)[nH]2)c2ccccn2c1C(=O)c1ccccc1
→ 8.6	-2.4	?	-0.5	-6.6	1.8	?
65	COc1ccc(C(=O)N/C(=C/c2ccco2)C(=O)NC2CCS(=O)(=O)C2)cc1 (centres undefined)
→ -1.1	0.6	?	-4.0	-2.6	-1.5	1.4
66	O=C(/C=C/N1CCOCC1)c1ccc(-c2ccccc2)cc1
→ 7.8	-4.6	29.4%	5.4	0.9	-0.1	2.4
67	COc1ccc(/C=N/n2c(N)c(S(=O)(=O)c3cccs3)c3nc4ccccc4nc32)cc1OC
→ 4.4	-7.0	18.3%	-4.2	19.3	-1.7	0.2
68	CC(C)Sc1n[nH]c(=O)n1-c1cccc(C(F)(F)F)c1
→ -2.6	-1.8	6.6%	-3.9	2.9	3.5	2.8
69	COc1ccc(N(C(C)C(=O)NN=C2CCCCCCC2)S(C)(=O)=O)cc1 (centres undefined)
→ -0.4	2.9	-1.2%	-2.2	2.0	-0.8	6.6
